Screening data: PubChem, several laboratories
HSV augment – enhancers of HSV replication in host cells, fold increase, host cell viability; actives 0.005% (n = 220,000); HSV replication augmentation in cells; AID 1956, 2009; maximum fold increase;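 active = peak rise of 1.5-fold or more in the series; inconclusive = self-fluorescent or not available for retest; tested in PC3 cells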;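 also: first round at 10 µM; read as green reporter fluorescence; hits show the peak of a series up to 25 µM; 1 = signal of infected wells without compound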
INS promoter inh – inhibitors of insulin promoter-driven GFP, primary screen, imaging, TRM-6 cells (human fetal islet line), eGFP reporter, cell count | reporter expression induced with tamoxifen | inhibition, % at 2 µM | actives 0.9% (n = 130,000);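 active = inhibition above the mean plus 3 SD, with well images judged a real hit on visual review, cut at about 60% in these data, passing the limit was not always enough; inconclusive = inhibition over the cutoff but images rejected on review; inactive = inhibition not above the cutoff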
RGS16-Gao – modulators of RGS16 binding to Galphao, primary screen, biochemical, human proteins, multiplexed bead flow cytometry; Regulator of G-protein signaling 16 (Homo sapiens) + Guanine nucleotide-binding protein …; bead-based flow cytometry RGS16-Galphao binding, fluorescence; actives lie on both sides; binding response (% of control), % at 10 µM; actives 0.38% (n = 220,000);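 active = below 25% or above 175%, edge rows of some plates excepted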;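 also: Galphao activated by GDP with aluminum fluoride before binding; 100% = wells without compound and 0% = beads without RGS; some results beyond the cut were filed as inactive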
Target sequence (O15492 whole entry, looked up): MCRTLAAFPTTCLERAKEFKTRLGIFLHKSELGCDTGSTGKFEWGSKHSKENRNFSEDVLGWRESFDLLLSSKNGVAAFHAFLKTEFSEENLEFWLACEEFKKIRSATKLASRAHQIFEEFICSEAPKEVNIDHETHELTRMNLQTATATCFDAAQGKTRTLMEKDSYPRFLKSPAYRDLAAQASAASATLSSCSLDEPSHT
Target sequence (P09471 whole entry, looked up): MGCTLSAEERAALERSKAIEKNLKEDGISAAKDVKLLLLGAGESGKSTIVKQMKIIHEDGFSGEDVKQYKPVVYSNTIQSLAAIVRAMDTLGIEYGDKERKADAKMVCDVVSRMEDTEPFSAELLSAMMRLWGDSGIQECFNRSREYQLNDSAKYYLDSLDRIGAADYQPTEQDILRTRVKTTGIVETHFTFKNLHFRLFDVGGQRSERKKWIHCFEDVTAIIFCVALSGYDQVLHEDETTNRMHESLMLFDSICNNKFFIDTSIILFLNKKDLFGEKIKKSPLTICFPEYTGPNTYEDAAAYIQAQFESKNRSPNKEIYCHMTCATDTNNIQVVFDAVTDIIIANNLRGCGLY
PKD1 kinase inh – inhibitors of human PKD1 kinase, biochemical, fluorescence polarization; Serine/threonine-protein kinase D1 (Homo sapiens), Q15139; PKD1 kinase fluorescence polarization assay; inhibition, %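 (about 10 µM by stock and volumes)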; actives 0.056% (n = 200,000); AID 797, 2007;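 active = inhibition of 50% or more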;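 also: controls were vehicle for no effect and a reference inhibitor for full effect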
GALR2 ag – GALR2 receptor agonists, primary screen, cell-based; Galanin receptor type 2 (Homo sapiens), O43603; GALR2-expressing cells, agonist activation read-out; activation, %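 (tested at 5 µM)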; actives 0.48% (n = 140,000); AID 803, 2007;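 active = above mean plus 3 SD of all compounds, about 5% in these data, not always enough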;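 also: 0% = vehicle buffer wells and 100% = reference agonist at full effect; tested in CHO reporter cells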
Target sequence (O43603 whole entry, looked up): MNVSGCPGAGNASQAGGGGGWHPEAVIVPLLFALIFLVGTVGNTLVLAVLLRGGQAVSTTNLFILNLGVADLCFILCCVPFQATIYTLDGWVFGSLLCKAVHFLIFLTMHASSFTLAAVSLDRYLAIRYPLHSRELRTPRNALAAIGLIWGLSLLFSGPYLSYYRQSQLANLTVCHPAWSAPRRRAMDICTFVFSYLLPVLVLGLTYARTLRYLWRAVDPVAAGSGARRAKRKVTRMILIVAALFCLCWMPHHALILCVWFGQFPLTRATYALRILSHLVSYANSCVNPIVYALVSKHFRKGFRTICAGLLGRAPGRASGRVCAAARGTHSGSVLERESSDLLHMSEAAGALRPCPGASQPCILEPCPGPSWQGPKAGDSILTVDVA
INS promoter inh cell count – also measured in INS promoter inh; calls as there; normalized cell count, %; measured here: cell count, toxicity; reference of the scale not given here;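 cells exposed to compound for 48 h; stained nuclei by imaging scaled within each plate; lower means fewer cells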
HSV augment primary fold – further read-out of HSV augment, marked with its call; fold increase; compound at 10 µM; measured here: primary screen fold increase 10 uM; tested in PC3 cells;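 GFP signal in the first replicate; 1 = infected wells without compound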
Active calls of the source: *. Some of the compounds tested, so the mix of outcomes need not match the whole.

`O=C(Cc1ccccc1)NC(Cc1ccc(Cl)cc1)C(=O)O` (stereo not drawn) gave HSV augment inactive, RGS16-Gao 97 and HSV augment primary fold 1.2.
For CN(C)/C=C1/C(=O)NC(=O)N(CCNc2ncc(C(F)(F)F)cc2Cl)C1=O the results were RGS16-Gao 101 and PKD1 kinase inh -2.
CCN1C(=O)C(=C2C=C(C)N(Cc3ccco3)C(C)=C2)C(=O)N(CC)C1=S was read as HSV augment inactive, RGS16-Gao 103, PKD1 kinase inh -5 and HSV augment primary fold 0.81.
O=C1NC(=O)C(=Cc2cc(Cl)ccc2OCc2ccc(C(=O)O)cc2)C(=O)N1 was read as HSV augment inactive, RGS16-Gao 93, PKD1 kinase inh -1 and HSV augment primary fold 0.96.
CN1c2ccc([N+](=O)[O-])cc2CC2(C(=O)NC(=O)N(c3ccccc3)C2=O)C1c1ccccc1 (stereo not drawn) was read as HSV augment inactive, RGS16-Gao 100, PKD1 kinase inh 3, GALR2 ag -1.1 and HSV augment primary fold 1.3.
For O=c1c2cc(Br)ccc2[nH]c(=S)n1-c1ccccc1 the results were HSV augment inactive, INS promoter inh 73*, RGS16-Gao 104, PKD1 kinase inh 5, INS promoter inh cell count 165* and HSV augment primary fold 0.88.
For CN(C)C=C1C(=O)N(C2CCCCC2)C(=O)N(C2CCCCC2)C1=O the results were HSV augment inactive, RGS16-Gao 97, PKD1 kinase inh 12, GALR2 ag -0.5 and HSV augment primary fold 0.76.
`C1CCC2S[C@H]3CCCCC3NC2C1` (stereo partly drawn) gave HSV augment inactive, RGS16-Gao 95 and HSV augment primary fold 0.99.
For CC(C(=O)N1CCC2(CC1)OCCO2)C1Sc2ccccc2NC1=O (stereo not drawn) the results were HSV augment inactive, RGS16-Gao 103, PKD1 kinase inh 10, GALR2 ag 1.4 and HSV augment primary fold 1.
`COc1ccc(N2C(=O)CC(N3CC=C(c4ccccc4)CC3)C2=O)cc1` (stereo not drawn) gave HSV augment inactive, INS promoter inh 57, RGS16-Gao 103, PKD1 kinase inh 0, GALR2 ag -1.5, INS promoter inh cell count 152 and HSV augment primary fold 0.87.
For CC1CN=C(Nc2ccc(N(C)C)cc2)S1 (stereo not drawn) the results were HSV augment inactive, RGS16-Gao 105, PKD1 kinase inh 4, GALR2 ag -2.7 and HSV augment primary fold 0.97.
For O=c1[nH]c(=O)n(-c2cccc(Cl)c2)c(O)c1C=NCCN1CCCCC1 the results were HSV augment inactive, INS promoter inh 0, RGS16-Gao 104, PKD1 kinase inh 12, GALR2 ag -1.8, INS promoter inh cell count 87 and HSV augment primary fold 0.96.
COc1ccc(-n2c(O)c(C=NCc3ccc4c(c3)OCO4)c(=O)[nH]c2=O)cc1 was read as HSV augment inactive, RGS16-Gao 101 and HSV augment primary fold 0.96.
For COCCCn1c(-c2ccc(OC)cc2)cc(C(=O)NC2CCCCCCC2)c1C the results were HSV augment inactive, INS promoter inh 44, RGS16-Gao 109, PKD1 kinase inh -3, GALR2 ag 1.0, INS promoter inh cell count 94 and HSV augment primary fold 0.75.
`COCC(C)OC(=O)c1c(N)n(Cc2ccco2)c2nc3ccccc3nc12` (stereo not drawn) gave HSV augment inconclusive, INS promoter inh -44, RGS16-Gao 99, PKD1 kinase inh -3, GALR2 ag 1.8 and INS promoter inh cell count 92.
`O=C(Cc1ccccc1)N1CCN(C/C=C/c2ccccc2)CC1` gave HSV augment inactive, INS promoter inh 9, RGS16-Gao -0.6*, PKD1 kinase inh 3, GALR2 ag -0.8, INS promoter inh cell count 113 and HSV augment primary fold 0.9.
CC(=O)c1cn(CCCOc2ccccc2)c2ccccc12 was read as HSV augment inactive, INS promoter inh 0, RGS16-Gao 93, PKD1 kinase inh -6, INS promoter inh cell count 99 and HSV augment primary fold 0.92.
`CCOC(=O)Cn1cc([N+](=O)[O-])nc1[N+](=O)[O-]` gave HSV augment inactive, RGS16-Gao 103, PKD1 kinase inh -3, GALR2 ag -0.9 and HSV augment primary fold 0.91.
For CC(C)C12CN3CCN(CC(C3)C1O)C2 (stereo not drawn) the results were INS promoter inh -305, RGS16-Gao 119, PKD1 kinase inh -5, GALR2 ag -0.9 and INS promoter inh cell count 84.
Screening CN1C(=O)NC(=O)[C@]2(Cc3ccccc3N3CCN(c4ccccc4)CC32)C1=O (stereo partly drawn) returned HSV augment inactive, INS promoter inh -80, RGS16-Gao 99, PKD1 kinase inh -5, GALR2 ag -1.5, INS promoter inh cell count 104 and HSV augment primary fold 1.2.
C[N+]1(C)C2CCC1CC(OC(=O)C(CO)c1ccccc1)C2 (stereo not drawn) was read as HSV augment inactive, INS promoter inh -15, RGS16-Gao 102, PKD1 kinase inh -4, INS promoter inh cell count 126 and HSV augment primary fold 0.91.
CC(C)COC(=O)c1ccccc1C(=O)OCC(C)C was read as HSV augment inactive, RGS16-Gao 109 and HSV augment primary fold 0.88.
Screening N#CCCn1cc(C(=O)NCc2ccccc2)c(-c2ccccc2)n1 returned HSV augment inactive, RGS16-Gao 102, PKD1 kinase inh 1 and HSV augment primary fold 0.87.
Screening CCC(=O)O[C@@H]1[C@@H](OC(C)=O)[C@@]2(O)C(C[C@H](O)C2(C)C)[C@](C)(O)[C@H]2CC[C@@H]3[C@@H](O)[C@]12C[C@@]3(C)O (stereo partly drawn) returned HSV augment inactive, INS promoter inh 5, RGS16-Gao 106, PKD1 kinase inh 0, GALR2 ag -0.7, INS promoter inh cell count 114 and HSV augment primary fold 1.
For c1ccc2[nH]c(CCNC3CCCCC3)nc2c1 the results were HSV augment inactive, INS promoter inh -3, RGS16-Gao 146, PKD1 kinase inh -5, GALR2 ag -1.3, INS promoter inh cell count 107 and HSV augment primary fold 0.92.
Screening O=[N+]([O-])c1ccc(N2CCNCC2)c2ncccc12 returned INS promoter inh 5, RGS16-Gao 98, PKD1 kinase inh 7, GALR2 ag 0.3 and INS promoter inh cell count 148.
`CCc1cc2c(s1)NC(=O)CN=C2c1cccs1` gave HSV augment inactive, INS promoter inh 22, RGS16-Gao 103, PKD1 kinase inh -13, GALR2 ag -2.8, INS promoter inh cell count 121 and HSV augment primary fold 0.83.
Screening Cc1ccc(N(C)C(=O)Oc2cccc3cccnc23)cc1 returned HSV augment inactive, INS promoter inh -3, RGS16-Gao 101, PKD1 kinase inh -7, GALR2 ag -2.8, INS promoter inh cell count 109 and HSV augment primary fold 1.
CCOC(=O)C1C2NC(=O)N(Cc3ccccc3)C1(C)Oc1c(OC)cccc12 (stereo not drawn) was read as HSV augment inactive, RGS16-Gao 98, PKD1 kinase inh -1, GALR2 ag 0.0 and HSV augment primary fold 1.1.
Screening O=Cc1cn(Cc2ccccc2F)c2ccccc12 returned HSV augment inactive, RGS16-Gao 101, PKD1 kinase inh -2 and HSV augment primary fold 0.89.
`CCOP(=O)(OCC)C1(O)C(=O)Nc2ccccc21` (stereo not drawn) gave HSV augment inactive, INS promoter inh 0, RGS16-Gao 107, PKD1 kinase inh -14, GALR2 ag -3.4, INS promoter inh cell count 100 and HSV augment primary fold 1.
`Cc1nn(Cc2ccccc2Cl)c(C)c1C(=O)NC1CCCc2ccccc21` (stereo not drawn) gave HSV augment inactive, INS promoter inh -20, RGS16-Gao 68, PKD1 kinase inh 3, GALR2 ag -1.0, INS promoter inh cell count 73 and HSV augment primary fold 0.91.
For O=C(CCCOc1ccc(Cl)cc1Cl)N1CCC2(CC1)OCCO2 the results were HSV augment inactive, INS promoter inh -171, RGS16-Gao 103, PKD1 kinase inh 1, GALR2 ag -2.7, INS promoter inh cell count 55 and HSV augment primary fold 1.1.
`CSc1nnc([C@@H](N)Cc2ccccc2)o1` gave HSV augment inactive, RGS16-Gao 102, PKD1 kinase inh -11, GALR2 ag -1.1 and HSV augment primary fold 1.
c1cncc(C2CCCCN2)c1 (stereo not drawn) was read as HSV augment inactive, RGS16-Gao 117 and HSV augment primary fold 1.
For CCc1ccc(/C=C(/C#N)C(N)=S)cc1 the results were HSV augment inactive, INS promoter inh 7, RGS16-Gao 97, PKD1 kinase inh -4, GALR2 ag -0.1, INS promoter inh cell count 60 and HSV augment primary fold 0.98.
Screening O=C1/C(=C/c2ccc3c(c2)OCO3)N2CCC1CC2 returned HSV augment inactive, RGS16-Gao 98, PKD1 kinase inh 1, GALR2 ag 0.3 and HSV augment primary fold 0.96.
Screening O=c1c2ccccc2nc(-c2ccco2)n1-c1ccc(Br)cc1 returned HSV augment inactive, RGS16-Gao 100 and HSV augment primary fold 0.95.
`CCn1c(=O)cc(OCC(=O)N2CCN(Cc3ccc4c(c3)OCO4)CC2)c2ccccc21` gave HSV augment inactive, INS promoter inh -33, RGS16-Gao 98, PKD1 kinase inh -6, GALR2 ag -2.0, INS promoter inh cell count 92 and HSV augment primary fold 0.85.
O=C(CN1CC(c2ccccc2)CC1=O)Nc1ccc(F)cc1 (stereo not drawn) was read as HSV augment inactive, RGS16-Gao 102, PKD1 kinase inh -9, GALR2 ag -2.0 and HSV augment primary fold 0.84.
For CCC(C)n1c(C)cc(C(N)=O)c1C (stereo not drawn) the results were HSV augment inactive, RGS16-Gao 99, PKD1 kinase inh 4 and HSV augment primary fold 0.88.
For Cc1nn(Cc2ccccc2)c(Cl)c1C(=O)NC1CCCc2ccccc21 (stereo not drawn) the results were HSV augment inactive, INS promoter inh -32, RGS16-Gao 105, PKD1 kinase inh -8, GALR2 ag -1.8, INS promoter inh cell count 70 and HSV augment primary fold 1.1.
COc1ccccc1N(CC(=O)NC1CCCC1)C(=O)c1cnn(C(C)C)c1 was read as HSV augment inactive, INS promoter inh 10, RGS16-Gao 102, PKD1 kinase inh -8, GALR2 ag -2.0, INS promoter inh cell count 189 and HSV augment primary fold 0.99.
Screening COc1ccc(-c2cc(-c3ccccc3)[n+](C)c(-c3ccccc3)c2)cc1 returned HSV augment inactive, INS promoter inh -40, RGS16-Gao 107, PKD1 kinase inh -2, INS promoter inh cell count 110 and HSV augment primary fold 0.8.
For CCOc1ccc(Br)c(C2(O)CC(C)N(C)CC2C)c1 (stereo not drawn) the results were HSV augment inactive, RGS16-Gao 102, PKD1 kinase inh -9, GALR2 ag -2.1 and HSV augment primary fold 0.91.
For COc1cc(C=C2C(=O)NC(=O)NC2=O)ccc1OCc1ccc([N+](=O)[O-])cc1 the results were HSV augment inactive, RGS16-Gao 84, PKD1 kinase inh 0 and HSV augment primary fold 1.
COc1cc2[nH]c(=O)n(-c3ccc(C)cc3)c(=O)c2cc1OC was read as INS promoter inh 69, RGS16-Gao 105, PKD1 kinase inh -13, GALR2 ag -1.3 and INS promoter inh cell count 78.
Cc1cc(C)c(C(=O)CN2CCOCC2)c(C)c1 was read as HSV augment inactive, INS promoter inh 11, RGS16-Gao 103, PKD1 kinase inh 3, GALR2 ag -0.2, INS promoter inh cell count 68 and HSV augment primary fold 0.82.
For O=c1cccc2n1CC1CC2CN(C(c2cccc(F)c2)c2sc3ncnn3c2O)C1 (stereo not drawn) the results were HSV augment inactive, RGS16-Gao 104, PKD1 kinase inh -12, GALR2 ag -4.7 and HSV augment primary fold 0.93.
Screening CC(C)CN1CCN(Cc2c(F)cccc2Cl)CC1CCO (stereo not drawn) returned HSV augment inactive, RGS16-Gao 107, PKD1 kinase inh -1 and HSV augment primary fold 0.9.
Screening O=c1[nH]c(=O)n(Cc2ccco2)c(O)c1C=NC1CC1 returned HSV augment inactive, INS promoter inh 46, RGS16-Gao 100, PKD1 kinase inh -9, GALR2 ag -1.1, INS promoter inh cell count 150 and HSV augment primary fold 0.95.
